From PubChem
Menin-MLL FL inh = displaces fluorescein MLL peptide from human menin; Fluorescence polarization, fluorescein-MLL peptide displacement from menin; FP activity change, % at 61.4 µM; AID 1766; 290,000 tested, under 10 active; inconclusive = falling polarisation curve, or a change in total fluorescence; inactive = total fluorescence flat and polarisation flat or rising; no compound was filed as active; the % refers to the polarisation; negative = inhibition;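 note: % of control where 0% means no effect; inhibitors lower the polarisation; unlabelled MLL peptide was the positive control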
TRPML1 ag = activates the human TRPML1 channel | Q9GZU1 | TRPML1-expressing cells, Ca2+ dye fluorescence, FDSS; host cell line not named in the record; reference of the full effect not given here | activation, % (no concentration beside the values) | 0.12% of 410,000 active | AID 624414; in the data active = activation above about 50%; inconclusive = about 30% to 50%; inactive = below about 30%; note: 0% is about no effect; the text of the record puts the active cut at 80%
Target sequence (Q9GZU1 whole entry, looked up): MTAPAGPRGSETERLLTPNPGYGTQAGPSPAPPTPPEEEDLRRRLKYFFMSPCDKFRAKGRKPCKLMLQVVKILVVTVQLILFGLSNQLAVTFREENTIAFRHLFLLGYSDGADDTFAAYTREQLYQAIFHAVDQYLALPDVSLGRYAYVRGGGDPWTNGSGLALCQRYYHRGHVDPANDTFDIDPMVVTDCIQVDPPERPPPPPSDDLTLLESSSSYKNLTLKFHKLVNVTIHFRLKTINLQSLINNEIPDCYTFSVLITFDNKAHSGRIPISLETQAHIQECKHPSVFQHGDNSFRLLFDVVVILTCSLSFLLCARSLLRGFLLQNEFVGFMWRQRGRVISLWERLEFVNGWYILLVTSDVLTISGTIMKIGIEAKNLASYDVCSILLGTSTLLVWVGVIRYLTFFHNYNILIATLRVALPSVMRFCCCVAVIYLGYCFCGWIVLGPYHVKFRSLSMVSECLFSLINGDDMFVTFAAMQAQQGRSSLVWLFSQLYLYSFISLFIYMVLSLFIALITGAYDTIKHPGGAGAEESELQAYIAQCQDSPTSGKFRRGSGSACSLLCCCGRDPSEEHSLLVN
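Agonist activity was taken from a 110 s kinetic Ca2+ dye read on the FDSS after pinning compounds onto TRPML1-DL cells. The cells were seeded at 1,500/well with Tet inducer, incubated about 16 h, then dye-loaded at room temperature.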
TRPV1 PAM = potentiators of human vanilloid receptor 1 (TRPV1) | Q8NER1 | TRPV1-expressing cells, Fluo-8 calcium influx, capsaicin EC20 potentiation; host cell line not named in the record; control for the full effect not named in the record | potentiation, % at 8.33 µM | 0.02% of 320,000 active | AID 540277; active means potentiation above 80%; inconclusive means 30% to 80%; inactive means below 30%; note: 0% is about no effect
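Fluo-8 calcium influx in TRPV1-expressing cells, kinetic read (ex 480/em 520 nm). Compound added and read 3 min for agonist activity, followed by capsaicin at EC20 final and 2 min further read for enhancement.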
ClpP mod = qHTS Assay for Activators of ClpP; 1.9% of 340,000 active; AID 651965, 2013; Potency, µM (series often up to 57.5 µM), for inactives: top-dose activity change, negative = active; purified B. subtilis ClpP, FRET peptide cleavage, 20 min; active = well fitted falling curve with a large enough effect; inconclusive = small, poorly fitted or top-dose-only effect; inactive = no such curve, though single readings can be large or run the other way; note: potency is the fitted concentration of half-maximal effect; the source files actives as falling curves though it sought activators and does not explain the sign; nearly all actives have a fitted effect of over 65% in size; many hits overshoot -100%
Target sequence (P80244 whole entry, looked up): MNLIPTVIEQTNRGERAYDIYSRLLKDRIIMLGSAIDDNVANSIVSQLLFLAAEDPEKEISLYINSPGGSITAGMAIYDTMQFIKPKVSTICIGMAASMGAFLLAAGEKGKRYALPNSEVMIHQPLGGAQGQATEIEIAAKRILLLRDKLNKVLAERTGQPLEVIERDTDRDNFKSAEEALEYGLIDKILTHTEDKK
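ClpP 10 microg/mL final, pH 8 Tris/KCl buffer with BSA, glycerol, Tween-20; compound pinned in; FRET-FV substrate; RT 20 min; Ex320/Em430; ΔFRET vs ADEP 5.8 microM, DMSO, no enzyme.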
Sfp inh = blocks B. subtilis Sfp PPTase activity; Q9F4F7; Biochemical Sfp PPTase activity, qHTS; Potency, µM, without a hit: max response, negative = inhibition, usual class: inhibitors; 3.5% of 310,000 active; active = well fitted inhibition curve with a large enough effect; inconclusive = small, poorly fitted or top-dose-only effect, or another doubt; inactive = no such curve, though single readings can be large or run the other way;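 note: the enzyme is Sfp with the accession as filed and its product quenches rhodamine fluorescence; potency is the fitted concentration of half-maximal effect; 0% = enzyme reaction without inhibitor and -100% = no enzyme wells; top concentration of the series not given in the record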
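Fluorescence-quenching assay with 15 nM Sfp, 5 uM rhodamine-CoA and 12.5 uM BHQ-2-labelled ybbR peptide in pH 7.6 Hepes/MgCl2 buffer. Enzyme was pre-incubated with compound for 15 min at room temperature. Rate was taken from the 30-min fluorescence change (525/598 nm).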
TRPML1 blocker = human mucolipin-1 channel inhibition; TRPML1-inducible cells, Ca2+ dye fluorescence, FDSS; active compounds read low; inhibition of EC80 agonist-evoked calcium signal; 0.02% of 390,000 active; activity change, negative = inhibition, % (test concentration not listed); in the data active means activity change below about -50%; inconclusive means about -30% to -50%; inactive means above about -30%;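 note: stimulus is agonist 54-4 at its EC80 concentration; % is set by controls: 0 for no effect and ±100 for the full control effect; compound concentration not given in the record; the text of the record puts the active cut at -80%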
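Calcium fluorescence in TRPML1-DL cells induced overnight with Tet: a 110 s read after compound pin addition, then a 110 s antagonist read after challenge with 54-4 at 4 uM final (EC80).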
PINK1 expr mod = modulators of PINK1 expression | PINK1 immunofluorescence, high-content cytometry, 24 h | Potency, µM (highest dose often 76.6 µM), inactives show at the top dose activation (PINK1 increase), hits mostly activators | 0.2% of 410,000 active; active = well fitted activation curve with a large enough effect; inconclusive = small, poorly fitted or top-dose-only effect; inactive = flat fitted curve, though single readings scatter; cell line not stated here;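 note: potency is the fitted concentration of half-maximal effect; % of control where 0% means no effect; nearly all actives have a fitted effect of over 65% in size; a mitochondrial uncoupler was the plate control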
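Measures PINK1 amount and localization on or inside mitochondria by immunofluorescence. Stable cells get compounds at 5 concentrations for 24 hours before fixation and staining; CCCP controls included.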
Numbers without * were called inactive; ? = inconclusive; . = not tested or not shown; & = joins results of further samples; [ ] = remark or other dose.

| nr | canonical_smiles | TRPV1 PAM | TRPML1 ag | ClpP mod | PINK1 expr mod | Sfp inh | Menin-MLL FL inh | TRPML1 blocker |
| --- | --- | --- | --- | --- | --- | --- | --- | --- |
| 1 | COc1ccc(NC(=O)C(CC(C)C)NC(=O)C2CCCCC2)c(OC)c1 (configuration not stated) | -10 | 0.8&-0.1 | -0.2%&2.8% | 0.4%&0.9% | -8% | -1.2 | -9&-16 |
| 2 | CCOC(=O)N1CCN(C(=O)C2CCCN(S(=O)(=O)c3ccc(C)cc3)C2)CC1 (configuration not stated) | -8 | 0.7 | -0.8% | -3.9%[38.3 µM] | -7% | 6.5 | 21 |
| 3 | Cc1cccc2sc(N(CCCN3CCOCC3)C(=O)CS(=O)(=O)c3ccc(F)cc3)nc12 | 1 | -0.7 | . | 3.3% | . | . | 7 |
| 4 | CC(C)(C)C1CCC(C(=O)OCC(=O)Nc2ccc3[nH]c(=O)[nH]c3c2)CC1 (configuration not stated) | 11 | -0.1 | . | 13% | 21% | 0.9 | -4 |
| 5 | COc1ccccc1NC(=O)Nc1ccc(Cl)c(S(=O)(=O)Nc2ccccc2OC)c1 | -1 | 0.2 | -2.5% | -2.3% | 10% | -0.9 | 0 |
| 6 | CC1=NN(c2ccccc2)C(=O)C1(C)[N+](=O)[O-] (configuration not stated) | -12 | 0.9 | ? | 8.5% | 5% | 4.5 | 14 |
| 7 | O=C(NCCSc1ncc(-c2ccccc2)[nH]1)c1ccco1 | 2 | 0.6 | -2.9% | -3.8% | . | . | 9 |
| 8 | COc1ccc(S(=O)(=O)N2CCN(C(=O)COc3ccc(C)c(C)c3)CC2)cc1OC | -18 | -0.3 | -6.4% | 0.9% | -6% | 1.6 | -19 |
| 9 | Cn1nc(CC(=O)NCc2ccc(C(F)(F)F)cc2)c2ccccc2c1=O | -4 | 2.1 | -2.8% | 1.6% | 15% | 1.8 | -9 |
| 10 | CCCCCCCCCC(=O)N[C@@H]1c2cc(OC)c(OC)cc2C[C@H]1O | . | -0.1 | 1.1% | -0.6% | . | . | 6 |
| 11 | COc1ccc(CNC(=O)CN2C(=O)COc3ccccc32)c(OC)c1 | . | 0.4 | 1.3% | -0.3% | . | . | 6 |
| 12 | CCc1ccc(C2C(C(=O)Nc3ccccc3)=C(C)Nc3c(C(=O)Nc4ccc(C)cc4)cnn32)cc1 (configuration not stated) | . | 3.4 | 32µM* | 16% | . | . | 6 |
| 13 | COCC(=O)Nc1nnc(-c2ccc(C(C)(C)C)cc2)s1 | -7 | 3.0 | -15% | -1.2% | 14% | -1.0 | -7 |
| 14 | N=C(N)N | . | . | . | 1.0% | 12% | -2.2 | . |
| 15 | Cc1cc(SCC(=O)Nc2ccc(F)cc2F)nc(=O)[nH]1 | . | -0.3 | -2.6% | 1.4% | . | . | 2 |
| 16 | CCC(=O)N(C(=O)CC)N1CCN(c2ccncc2S(=O)(=O)N2CCCCC2)CC1 | 6 | -0.5 | 0.5% | 0.7% | 8% | . | -15 |
| 17 | Cc1ccc(S(=O)(=O)NNc2c3ccccc3nc3ccc(Cl)cc23)cc1 | . | -0.5 | 4.4% | -0.1% | . | . | 16 |
| 18 | O=C(/C=C/c1ccccc1)Nc1nnc(SCC(=O)c2ccc3ccccc3c2)s1 | 1 | 0.4 | -17% | ? | -23% | . | 14 |
| 19 | Cc1ccccc1NC(=O)COc1ccc2oc(=O)cc(C)c2c1 | -5 | 0.6 | -26% | -0.3% | 0% | 1.6 | -13 |
| 20 | COC(=O)c1ccccc1NC(=O)c1ccc2c(=O)n3c(nc2c1)CCCCC3 | . | 1.3 | 13% | 0.3% | . | . | 14 |
| 21 | N=c1c(S(=O)(=O)c2ccc(Br)cc2)cc2c(=O)n3ccccc3nc2n1CCN1CCOCC1 | . | -0.3 | 3.8% | 3.2% | . | . | -1 |
| 22 | Cc1cccc(C2CC(=O)Nc3cc4c(cc32)OCO4)c1 (configuration not stated) | . | 1.3 | 0.6% | 3.8% | . | . | 9 |
| 23 | COc1cccc(OCc2ccc(Cn3nc(NC(=O)NCCc4ccc(OC)c(OC)c4)c4ccccc43)cc2)c1 | . | -0.2 | ? | -0.6% | . | . | . |
| 24 | COc1ccc([N+](=O)[O-])cc1N1C(=O)c2cccnc2C1=O | 5 | 1.1 | 0.8% | -1.4% | 13% | 1.2 | ? |
| 25 | S=C1SCCN1Cc1ccccc1 | . | 1.6 | ? | -3.1% | . | . | -8 |
| 26 | CCOc1ccc(N(C)C(=O)C2CCN(S(=O)(=O)c3c(C)noc3/C=C/c3ccc(C)cc3)CC2)cc1 | . | -0.1 | ? | 3.0% | . | . | 0 |
| 27 | Cc1ccc(C(=O)Nc2ccccc2C(=O)NC(Cc2ccccc2)C(=O)O)cc1 (configuration not stated) | 7 | -0.9 | . | -0.1% | -6% | 4.8 | -6 |
| 28 | CCN1CCN(C(CNS(=O)(=O)c2ccccc2)c2ccccc2)CC1 (configuration not stated) | -5 | 0.3 | -0.1% | -0.8% | 16% | 0.5 | -5 |
| 29 | O=C(O)CCCC(=O)NCCc1cccc(Cl)c1 | -8 | -0.6 | 2.0% | 1.8% | 21% | 2.5 | 20 |
| 30 | CCC(C)c1c(O)nc(SCc2ccccc2)[nH]c1=O (configuration not stated) | 5 | 1.2 | -1.1% | 3.4%[38.3 µM] | -11% | -2.2 | 0 |
| 31 | Cn1c(Cn2nnc3ccccc32)nnc1SCC(=O)Nc1nccs1 | 4 | 1.1 | -1.9% | -0.7% | 21% | 0.3 | 27 |
| 32 | CCc1ccc(-c2nc(CS(=O)CC(=O)NCCN3CCCCCC3)c(C)o2)cc1 (configuration not stated) | 5 | -1.0 | -8.8% | 2.7% | -8% | 0.4 | -10 |
| 33 | CC(=O)Nc1cccc(NC(=O)c2csc(C)c2)c1 | 1 | -0.7 | 0.7% | 3.1% | 11% | . | 19 |
| 34 | CSCc1ccc(C(=O)NCCSc2ccc(Br)cc2)cc1 | -12 | 1.4 | -0.5% | 1.1% | 20% | . | 2 |
| 35 | Cc1cn([C@H]2C[C@H](O)[C@@H](CNCc3ccc(Oc4cc(-n5cccn5)ncn4)cc3)O2)c(=O)[nH]c1=O | . | -0.5 | -0.3% | -0.1% | . | . | -1 |
| 36 | O=C(Nc1cccc(F)c1)N1CC[C@@]2(CCCN(C(=O)c3cnccn3)C2)C1 | . | . | . | -0.5% | 19% | -1.5 | . |
| 37 | C[C@H](CO)N1C[C@H](C)[C@H](CN(C)S(=O)(=O)c2ccc3ccccc3c2)OCc2cnnn2CCCC1=O | . | -0.5 | 0.7% | 1.2% | . | . | 18 |
| 38 | O=C(Nc1nnc(CC2=CCCCC2)s1)c1cccs1 | -9 | 1.2 | -2.0% | -2.9% | 20% | 4.4 | 22 |
| 39 | Cc1ccc2nc(C)c3c(c2c1)OC(C(C)(Cl)Br)C3 (configuration not stated) | -5 | 0.9 | . | 3.4% | 20µM* | 7.4 | 7 |
| 40 | CCC(NC(C)C)C(O)c1ccc(O)c(O)c1 (configuration not stated) | -1 | 0.3 | -0.4% | 1.3% | ? | -2.6&-10 | -8 |
| 41 | COc1cc(S(=O)(=O)N2CCCCC2)ccc1NC(=O)Cc1ccccc1 | 1 | 3.6 | -1.0% | ? | -10% | 4.3 | 47 |
| 42 | COc1ccc(S(=O)(=O)N2CCC(c3nnc(-c4ccccc4C)o3)CC2)c(OC)c1 | . | 1.4 | -2.0% | 0.7% | . | . | -17 |
| 43 | O=C(COC(=O)c1ccco1)Nc1nc2ccccc2s1 | 9 | -0.3 | 2.3% | -1.1% | 22% | -2.3 | -9 |
| 44 | CC(C(=O)N1CCCc2c1c(=O)oc1ccc(O)cc21)N1CCc2ccccc2C1 (configuration not stated) | -9 | 0.1 | -13% | 4.9% | -4% | 0.4 | 13 |
| 45 | CSc1ncc(-c2ccccc2)cn1 | -3 | 0.2 | . | 1.6% | -27% | 2.6 | 2 |
| 46 | NS(=O)(=O)c1ccc(CCNc2nn3c(-c4cccc(OC(F)(F)F)c4)cnc3s2)cc1 | . | -0.8 | -1.0% | -0.8% | . | . | . |
| 47 | O=C1CCOc2cc(OCc3ccccc3)ccc21 | 4 | 0.1 | -19% | 1.3%[38.3 µM] | -5% | 3.7 | 14 |
| 48 | CC(=O)Nc1cccc(-c2ccnc3c2CC(C(=O)NCCC(F)(F)F)O3)c1 (configuration not stated) | . | 0.7 | -22% | 8.4% | . | . | -15 |
| 49 | O=C(N/N=C/c1ccsc1)c1c[nH]c2ccccc12 | -19 | -0.4 | -1.3% | -0.6% | -5% | -0.4 | 3 |
| 50 | COc1ccc(-c2noc(N3CCC(C(=O)N4CCN(c5cccc(OC)c5)CC4)CC3)n2)cc1 | . | 0.2 | 0.9% | 0.7% | . | . | 19 |
| 51 | Cn1cccc1-c1cc(C(=O)N/N=C/c2ccc(Cl)cc2)[nH]n1 | -15 | 0.8 | . | 1.7% | -11% | 0.7 | 2 |
| 52 | Cc1cc(OCCNCCO)cc(C)c1Cl | . | 0.7 | -1.5% | -0.6% | 17% | 2.0 | 4 |
| 53 | O=C(COc1nsnc1N1CCOCC1)Nc1ccccc1Cl | 11 | -1.6 | 0.1% | 0.1% | 10% | 1.9 | -5 |
| 54 | Cc1cccnc1NC(=O)c1ccc(Cl)c(S(=O)(=O)N2CCCCCC2)c1 | -9 | -0.3 | 1.5% | 6.0% | 8% | 4.9 | 19 |
| 55 | O=C(COC(=O)CCc1ccc(S(=O)(=O)N2CCOCC2)cc1)Nc1ncc(C(F)(F)F)cc1Cl | 3 | 0.6 | -1.1% | 41%[38.3 µM] | 10% | 2.6 | 15 |
| 56 | CCCNC(=O)c1cc(C2CCCN(C(=O)c3cc(C(C)(C)C)nn3C)C2)on1 (configuration not stated) | . | -0.8 | 0.7% | 0.5% | . | . | . |
| 57 | CCOc1ccc(-n2nc3c(SCCN4CCCC4)nnc(C)c3c2C)cc1 | 2 | -0.1 | -1.3% | 1.7% | -11% | 18 | 13 |
| 58 | CCC(C)c1ccc(NC(=O)c2cccnc2)cc1 (configuration not stated) | 8 | 0.8 | -0.4% | -3.8%[38.3 µM] | -15% | 0.5 | -2 |
| 59 | CCC(C)Sc1ccc(-c2nc3cnccn3c2NC2CCCCC2)cc1 (configuration not stated) | 26 | 2.5&2.4 | 3.9%&-23% | -1.9%&-1.3% | . | . | 23 |
| 60 | CCCCOC(=O)c1ccc(NC(=O)CN2C(=O)NC3(CCCCCC3)C2=O)cc1 | 4 | 0.1 | 1.3% | 1.2% | . | . | -2 |
| 61 | CN(C(=O)c1cccc(NC(=O)Cc2ccc(NC(=O)C3CCN(C(=O)C4CCCC4)CC3)cc2)c1)C1CC1 | . | 2.3 | -1.1% | -0.9% | . | . | -4 |
